Source: PubChem BioAssay
UCH37 DUB inh = human UCH37 deubiquitinating enzyme inhibition | purified proteasome/UCH37, Ub-AMC cleavage fluorescence | inhibition, % (no concentration beside the values) | hit rate 0.33% among 330,000 | AID 588478;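 active = mean of two replicates above 20%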;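 note: 0% = compound-free wells with enzyme and 100% = wells lacking proteasome; stock transfer was 100 nL into about 20 µL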
Target sequence (Q9Y5K5 whole entry, looked up): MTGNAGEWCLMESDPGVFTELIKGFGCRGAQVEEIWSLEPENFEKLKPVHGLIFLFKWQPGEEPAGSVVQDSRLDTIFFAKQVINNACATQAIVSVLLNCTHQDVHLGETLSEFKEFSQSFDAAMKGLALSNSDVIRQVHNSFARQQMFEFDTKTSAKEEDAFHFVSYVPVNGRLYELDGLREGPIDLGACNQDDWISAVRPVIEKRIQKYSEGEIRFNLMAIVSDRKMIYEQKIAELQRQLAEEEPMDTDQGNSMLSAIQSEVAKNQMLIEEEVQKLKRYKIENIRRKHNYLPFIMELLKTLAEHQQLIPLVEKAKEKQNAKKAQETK
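Material: human UCH37 enzyme supplied as purified proteasome complex. Measure: % inhibition of Ub-AMC cleavage fluorescence. Medium: pH 7.4 Tris-HCl (50 mM) with ovalbumin, ATP-MgCl2, DTT. Times: 30 min preincubation with enzyme, 25 min cleavage at room temperature. Detection: AMC fluorescence intensity at 355/460 nm.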
Ecoli growth = blocks Escherichia coli growth. OD600, 23 h; active compounds read low. OD600 absorbance (test concentration not listed). hit rate 0.21% among 330,000. AID 1053175;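 active = OD600 absorbance below the run mean of sample wells minus 3.6 SD, in any replicate, cut at about 0.56 in these data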;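 note: stock transfer was 300 nL into about 60 µL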
rRNA inh HTS = selective bacterial rRNA inhibition in E. coli. GFP signal change (wild-type ribosome), % (no concentration beside the values). AID 720706. E. coli WT GFP vs humanized-ribosome RFP mutants, fluorescence, 24 h; active compounds read low; DMSO median 0, no signal -100. hit rate 1.6% among 350,000;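 active = significant combined selectivity score with lowered wild-type GFP, culture density cut under 30%, mutant RFP and density less affected; inactive = any of these conditions unmet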; note: one replicate is shown; some compounds called inactive have numbers as strong as hits
Beta2AR agonist = agonists of human beta-2 adrenergic receptor inducing internalization; Am2.2-beta2AR cells, FAP receptor internalization, flow cytometry; reference of the scale not given here; response, % (concentration not given with the values); hit rate 0.43% among 340,000;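 active = response above a set limit, near 3 SD of response in nonfluorescent compounds, cut at about 42% in these data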;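 note: stock transfer was 100 nL into about 11 µL; a reference agonist was the positive control; negative values mostly stem from fluorescent compounds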
HNF4A DNA FP = change in binding of human HNF4 alpha to DNA. P41235. HNF4a-FITC DNA binding, fluorescence polarization, 1 h. activity change, % at 10 µM. hit rate 0.3% among 360,000; in the data active = activity change above about 30%, passing the limit was not always enough;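 note: controls were the assay level and a saturating level of protein; the project sought stronger binding though the title names inhibitors; some compounds called inactive have numbers as strong as hits; positive values seem to mean higher polarization but the record does not say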
Target sequence (P41235 whole entry, looked up): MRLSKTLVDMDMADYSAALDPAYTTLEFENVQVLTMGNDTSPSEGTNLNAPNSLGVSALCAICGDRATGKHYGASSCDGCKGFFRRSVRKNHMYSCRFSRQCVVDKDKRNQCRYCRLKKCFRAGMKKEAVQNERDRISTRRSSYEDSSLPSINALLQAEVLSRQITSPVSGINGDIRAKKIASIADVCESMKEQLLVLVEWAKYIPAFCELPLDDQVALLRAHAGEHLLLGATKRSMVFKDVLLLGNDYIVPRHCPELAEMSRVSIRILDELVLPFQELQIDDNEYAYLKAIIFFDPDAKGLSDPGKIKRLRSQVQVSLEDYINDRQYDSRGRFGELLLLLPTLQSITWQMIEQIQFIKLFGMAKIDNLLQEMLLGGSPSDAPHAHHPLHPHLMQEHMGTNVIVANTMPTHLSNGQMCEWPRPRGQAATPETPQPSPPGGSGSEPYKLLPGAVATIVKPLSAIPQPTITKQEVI
FGF22 binding = FGF22 (human) thermal shift binding; calls only at 9.99 µM; hit rate 1.5% among 340,000; AID 651658; Q9HCT0; recombinant FGF22 thermal shift, SYPRO orange fluorescence; percent of sucrose octasulfate shift, DMSO zero;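 active = melting point raised past a set limit in the mean and every replicate; three in four hits are not shown here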
Target sequence (Q9HCT0 whole entry, looked up): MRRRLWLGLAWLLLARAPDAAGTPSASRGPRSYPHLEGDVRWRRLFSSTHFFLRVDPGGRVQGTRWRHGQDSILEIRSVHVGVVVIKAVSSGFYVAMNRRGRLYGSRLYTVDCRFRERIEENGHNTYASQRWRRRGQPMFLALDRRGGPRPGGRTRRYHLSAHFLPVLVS
ALR H2O2 inh = inhibitors of human sulfhydryl oxidase ALR. P55789. purified ALR, DTT oxidation, H2O2 HRP-luminol luminescence. inhibition, % (no concentration beside the values). hit rate 3.8% among 290,000;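 active = mean and each replicate at 75% or more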;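 note: stock transfer was 7.5 nL into about 7.5 µL; 0% = neutral wells and 100% = wells with inactivated enzyme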
rRNA inh HTS OD600 = recorded beside rRNA inh HTS, whose call it bears; OD600 change, %; measured here: OD600 growth;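 optical density of the mix in the first replicate; 0 = DMSO median and -100 = no signal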
rRNA inh HTS RFP = also measured in rRNA inh HTS; calls as there; RFP signal change, %; measured here: RFP humanized mutant strains;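 first replicate; 0 = DMSO median and -100 = no signal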
* hit, by the source's call; i = inactive; x = not tested or not shown.

UCH37 DUB inh | Ecoli growth | rRNA inh HTS | SMILES | rRNA inh HTS OD600 | rRNA inh HTS RFP | Beta2AR agonist | HNF4A DNA FP | FGF22 binding | ALR H2O2 inh
1.2 | 0.66 | -1 | COc1ccc(N(CC(=O)NC(C)c2ccccc2)S(=O)(=O)c2ccc(C)cc2)cc1 (stereo unspecified) | -6 | -4.4 | -12 | 5.5 | i | x
-0.5 | 0.74 | 2 | C=CCC[C@H](Cc1ccc(F)cc1)C(=O)OC[C@@H](Cc1c[nH]c2ccccc12)NC(=O)[C@H](CC=C)CC(=O)N[C@H](CO)Cc1ccccc1 | 13 | 1.4 | -2 | 2.5 | i | 1
x | x | 1 | Cc1cccc(CNc2ccc(C(CC(N)=O)NC(=O)Cc3cccc4ccccc34)cc2[N+](=O)[O-])c1 (stereo unspecified) | 12 | -10 | 5 | 5.8 | i | 1
x | x | 9 | Cc1cc(OCC(=O)OCC(=O)N2CCCCC2)ccc1Cl | 8 | 0.1 | x | 2.0 | i | x
4.0 | 0.66 | -1 | COc1cccc(NC(=O)N2CCN(c3nnnn3-c3ccccc3)CC2)c1 | 1 | 0.4 | 1 | -0.5 | i | 7
0.3 | 0.71 | x | COc1ccccc1CNC(=O)C1CCN(c2nc3ccccc3o2)CC1 | x | x | -6 | -2.1 | x | -12
26* | 0.68 | 0 | O=C(COC(=O)c1ccc([N+](=O)[O-])o1)NC1CCCCC1 | 11 | -2.0 | -1 | 0.0 | i | x
3.5 | 0.71 | x | O=c1c2ccccc2c(-c2ccccc2)nn1Cc1ccccc1 | x | x | -14 | 5.2 | x | -3
-5.9 | 0.68 | 6 | Cc1ccc(CNC(=O)COC(=O)c2ccc(Cl)c(N)c2)cc1 | 21 | -4.1 | -7 | -2.2 | i | x
x | x | -3 | O=C(CCOc1ccccc1)Nc1ccc([N+](=O)[O-])cc1 | -2 | 6.0 | -11 | -1.7 | i | -20
0.4 | 0.69 | 1 | Cc1ccccc1S(=O)Cc1ccc(C(=O)NCCCN2CCCCC2)o1 (stereo unspecified) | -1 | -2.2 | -3 | -2.9 | i | -14
6.9 | 0.67 | 6 | COc1ccc(NC(=O)c2ccc(-n3cnnn3)cc2)c([N+](=O)[O-])c1 | 14 | -2.5 | -10 | 5.9 | i | -1
-0.3 | 0.68 | x | CC1CC(NC(=O)c2ncn[nH]2)CC(C)(C)C1 (stereo unspecified) | x | x | 14 | 0.6 | x | -3
4.6 | 0.7 | x | COC(=O)Cn1c(=O)c2c(nc(Br)n2Cc2ccccc2Cl)n(C)c1=O | x | x | -3 | 0.4 | x | 40
x | x | -56 | COc1cc(OC)nc(Nc2nc(C(N)Cc3ccc(C(F)(F)F)cc3)cs2)n1 (stereo unspecified) | -81 | -18 | x | 5.1 | i | x
x | x | -3 | CC1=C(C(=O)N(C)C)CC(CC(=O)NCc2cccs2)C(=O)N1CCC1=CCCCC1 (stereo unspecified) | 2 | -3.1 | x | 2.7 | i | x
1.6 | 0.68 | -31* | Cc1ccc(N(CC(O)Cn2nc(C)cc2C)S(=O)(=O)c2ccc3ccccc3c2)cc1 (stereo unspecified) | -14* | 1.1* | -13 | -0.3 | i | -4
1.3 | 0.7 | 4 | CC(C)NS(=O)(=O)c1ccc(OCC(=O)NCC2CCCO2)c(Cl)c1 (stereo unspecified) | 8 | -1.1 | 9 | 9.0 | i | -1
x | x | -4 | COc1ccc(C(=O)C2CCCN(C(=O)c3csc(SC)n3)C2)cc1F (stereo unspecified) | -42 | -13 | x | 6.6 | i | x
-1.6 | 0.66 | 5 | CCOc1ccc(OCCC(=O)N(CCOC)c2c(N)n(Cc3ccccc3)c(=O)[nH]c2=O)cc1 | 3 | -2.0 | -2 | 1.2 | i | x
-0.6 | 0.7 | 6 | CC(C)N1CCN(Cc2cccn2-c2ccccn2)CC1CCO (stereo unspecified) | 13 | 4.1 | -1 | -0.5 | i | -10
1.2 | 0.66 | 0 | O=C(NCCCn1ccnc1)c1csc2ccccc12 | 3 | -10 | 11 | -1.4 | i | 2
x | x | 0 | COc1ccccc1Cc1c(-c2ccc(OC)c(OC)c2)nc2cc(C)c(Br)c(C)n12 | 0 | 28 | x | 0.7 | i | x
5.5 | 0.67 | 4 | C=C1CC2C(=O)N(Cc3ccccc3)C(C(=O)OCC)(C(=O)OCC)C1N2C(=O)OC(C)(C)C (stereo unspecified) | 3 | 1.6 | -1 | -1.8 | i | -19
x | x | 3 | COc1cc(C(=O)NC2Cc3ccccc3C2)ccc1OC1CCN(C(C)=O)CC1 | 5 | 1.2 | 2 | -5.6 | i | -11
5.1 | 0.72 | 6 | CSc1ccccc1OCc1cc(C(=O)NCCN2CCCC(O)C2)no1 (stereo unspecified) | 6 | 0.0 | 7 | -0.2 | i | -2
-60 | 0.73 | x | O=C1CCCC2=C1C1(CCCC1)N=C(Nc1nc3ccccc3s1)N2 | x | x | 7 | 12 | x | 1
5.7 | 0.7 | 9 | COC(=O)c1cc(C(=O)NCc2ccc3c(c2)OCO3)cc([N+](=O)[O-])c1 | -1 | 0.7 | -6 | 0.8 | i | -5
0.8 | 0.65 | x | Cc1ccc(-n2c(Cc3cccn3C)nnc2SCC(=O)NCc2ccc3c(c2)OCO3)cc1 | x | x | -3 | -0.5 | x | x
3.3 | 0.71 | -2 | COc1ccc(CCC(=O)OCc2csc(CC(=O)Nc3ccc(C)cc3)n2)cc1OC | -4 | 13 | -4 | 3.2 | i | -2

Two entries picked at random from those above:
UCH37 DUB inh | Ecoli growth | rRNA inh HTS | SMILES | rRNA inh HTS OD600 | rRNA inh HTS RFP | Beta2AR agonist | HNF4A DNA FP | FGF22 binding | ALR H2O2 inh
x | x | 0 | COc1ccccc1Cc1c(-c2ccc(OC)c(OC)c2)nc2cc(C)c(Br)c(C)n12 | 0 | 28 | x | 0.7 | i | x
5.5 | 0.67 | 4 | C=C1CC2C(=O)N(Cc3ccccc3)C(C(=O)OCC)(C(=O)OCC)C1N2C(=O)OC(C)(C)C (stereo unspecified) | 3 | 1.6 | -1 | -1.8 | i | -19

13 entries from above, with two lines to a compound.
Results follow in this order: UCH37 DUB inh, Ecoli growth, rRNA inh HTS, rRNA inh HTS OD600, rRNA inh HTS RFP, Beta2AR agonist, HNF4A DNA FP, FGF22 binding, ALR H2O2 inh
COc1cc(OC)nc(Nc2nc(C(N)Cc3ccc(C(F)(F)F)cc3)cs2)n1 (stereo unspecified)
→ x, x, -56, -81, -18, x, 5.1, i, x
CC1=C(C(=O)N(C)C)CC(CC(=O)NCc2cccs2)C(=O)N1CCC1=CCCCC1 (stereo unspecified)
→ x, x, -3, 2, -3.1, x, 2.7, i, x
Cc1ccc(N(CC(O)Cn2nc(C)cc2C)S(=O)(=O)c2ccc3ccccc3c2)cc1 (stereo unspecified)
→ 1.6, 0.68, -31*, -14*, 1.1*, -13, -0.3, i, -4
CC(C)NS(=O)(=O)c1ccc(OCC(=O)NCC2CCCO2)c(Cl)c1 (stereo unspecified)
→ 1.3, 0.7, 4, 8, -1.1, 9, 9.0, i, -1
COc1ccc(C(=O)C2CCCN(C(=O)c3csc(SC)n3)C2)cc1F (stereo unspecified)
→ x, x, -4, -42, -13, x, 6.6, i, x
CCOc1ccc(OCCC(=O)N(CCOC)c2c(N)n(Cc3ccccc3)c(=O)[nH]c2=O)cc1
→ -1.6, 0.66, 5, 3, -2.0, -2, 1.2, i, x
CC(C)N1CCN(Cc2cccn2-c2ccccn2)CC1CCO (stereo unspecified)
→ -0.6, 0.7, 6, 13, 4.1, -1, -0.5, i, -10
O=C(NCCCn1ccnc1)c1csc2ccccc12
→ 1.2, 0.66, 0, 3, -10, 11, -1.4, i, 2
COc1ccccc1Cc1c(-c2ccc(OC)c(OC)c2)nc2cc(C)c(Br)c(C)n12
→ x, x, 0, 0, 28, x, 0.7, i, x
C=C1CC2C(=O)N(Cc3ccccc3)C(C(=O)OCC)(C(=O)OCC)C1N2C(=O)OC(C)(C)C (stereo unspecified)
→ 5.5, 0.67, 4, 3, 1.6, -1, -1.8, i, -19
COc1cc(C(=O)NC2Cc3ccccc3C2)ccc1OC1CCN(C(C)=O)CC1
→ x, x, 3, 5, 1.2, 2, -5.6, i, -11
CSc1ccccc1OCc1cc(C(=O)NCCN2CCCC(O)C2)no1 (stereo unspecified)
→ 5.1, 0.72, 6, 6, 0.0, 7, -0.2, i, -2
O=C1CCCC2=C1C1(CCCC1)N=C(Nc1nc3ccccc3s1)N2
→ -60, 0.73, x, x, x, 7, 12, x, 1

The list goes on:
UCH37 DUB inh | Ecoli growth | rRNA inh HTS | SMILES | rRNA inh HTS OD600 | rRNA inh HTS RFP | Beta2AR agonist | HNF4A DNA FP | FGF22 binding | ALR H2O2 inh
4.0 | 0.68 | 16 | O=C(CN1C(=O)NC2(CCc3ccccc3C2)C1=O)Nc1ccc(Cl)cc1F (stereo unspecified) | 15 | 2.4 | -11 | 2.6 | i | -12
x | x | 9 | CCCCNc1c(-c2ccc(F)cc2)nc2nc(C)cc(C)n12 | 10 | 1.4 | x | -0.1 | i | x
0.7 | 0.7 | 10 | O=c1[nH]c(CN2CCN(S(=O)(=O)c3cccs3)CC2)nc2c(Br)cc(Br)cc12 | 0 | 3.0 | -7 | -1.6 | i | -7
1.5 | 0.65 | x | CC1CN(S(=O)(=O)c2cc(C(=O)NCCCN3CCCC3=O)ccc2Cl)CC(C)O1 (stereo unspecified) | x | x | -6 | 0.7 | i | 7
4.1 | 0.7 | 25 | Cc1nc(N2CCOCC2)[nH]c(=O)c1C | 24 | 0.4 | 0 | -2.7 | i | -3
0.5 | 0.67 | 9 | Clc1ccccc1C1Nc2cccc3cccc(c23)N1 | 18 | 5.7 | 11 | -3.1 | i | -15
x | x | 8 | COC(=O)c1ccc(CSc2nc3c(c(=O)[nH]2)CCC3)cc1 | 11 | -1.8 | x | -1.2 | i | x
1.2 | 0.68 | x | COc1ccccc1CNC(=O)C(C)NS(=O)(=O)c1ccc(C)cc1 (stereo unspecified) | x | x | -15 | 5.6 | x | -8
6.0 | 0.7 | 6 | Cc1ccc(C(=O)N/C(=C\c2ccco2)C(=O)N2CCCCC2)cc1 | 1 | 0.3 | -3 | 4.3 | i | 21
8.7 | 0.69 | 9 | O=C(O)CCC(=O)NNc1ncnc2ccccc12 | 14 | -0.3 | -11 | 2.3 | i | 17
1.5 | 0.71 | x | N#CCSc1ncnc2c1cnn2CCO | x | x | -1 | -0.1 | x | -14
6.1 | 0.63 | 19 | NC(N)=Nc1nc2cc([N+](=O)[O-])ccc2o1 | 18 | 8.3 | -6 | -2.0 | i | 5
x | x | 16 | COc1cccc(/C=N/NC(=O)CCNc2n[nH]c(=O)[nH]c2=O)c1OC | 4 | 2.4 | -13 | 0.7 | i | 1
-11 | 0.68 | 9 | Cc1cc(C)c(NC(=O)CSc2nc(=O)n3cc(C)ccc3n2)c(C)c1 | 8 | 1.4 | 2 | -1.0 | i | x
5.7 | 0.72 | x | Clc1ccc(Cl)c2sc(N3CCCC3)nc12 | x | x | -4 | -1.7 | x | 0
3.1 | 0.73 | 0 | Cc1nnc2ccc(-c3ccc(NS(C)(=O)=O)cc3)nn12 | 3 | 2.6 | 6 | 1.1 | i | -29
2.4 | 0.72 | 5 | O=C(CCC1CCCC1)N=C1SC2CS(=O)(=O)CC2N1c1ccccc1F (stereo unspecified) | 14 | -1.8 | -1 | 3.2 | i | -3
0.7 | 0.67 | -11 | COc1cccc(NC(=O)c2ccccc2N(Cc2ccccc2)S(C)(=O)=O)c1 | -6 | -0.5 | 5 | 5.3 | i | -7

An excerpt (hit frequency here may not be typical).
